Source: PubChem BioAssay
Mtb growth – Mycobacterium tuberculosis H37Rv growth inhibition, putative kinase inhibitor library, confirmatory dose response (AID 2842). inhibition, % at 10 µg/mL, or IC90 in µg/mL where a hit was titrated. M. tuberculosis H37Rv growth inhibition; higher % means a stronger effect; some inactives read as strong as hits. 5.2% of 24,000 active;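 active = confirmed in a dose series; inconclusive = mostly over 85% at the one dose but not retested; inactive = below 85% or not confirmed; about a fifth of its hits are not listed in these tables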;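 also: bacteria incubated one week before Alamar blue readout; 0% = bacteria only wells and 100% = bacteria with high antibiotic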
* marks the source's active call; other numbers are inactive results; u = inconclusive.

SMILES	Mtb growth
CCOc1ccc(S(=O)(=O)Nc2cc(Cl)c3oc4c(c3c2)C(=O)CCC4)cc1	-2.5%
Cc1cc(C)cc(C(=O)Nc2cc(=O)n(C)c(=O)n2C)c1	-7.9%
Cc1cc(C)nc(SCC(=O)Nc2ncc(Cc3cccc4ccccc34)s2)n1	8.9%
CS(=O)(=O)c1ccc(CC(=O)Nc2nnc(-c3ccc4c(c3)OCCO4)o2)cc1	2.5%
CCOC(=O)C(C)Sc1nc(N)c(NC(=O)c2ccco2)c(=O)[nH]1 (stereo unspecified)	1.1%
CCOc1ccccc1NC(=O)CSc1nnc(-c2ccco2)n1-n1cccc1	-7.9%
CCOC(=O)Nc1c(C(=O)Nc2ccc(F)c(Cl)c2)oc2ccccc12	-2.2%
Cn1c(=O)[nH]c(=O)c2c1nc(NCC(=O)O)n2CC(O)COc1ccccc1 (stereo unspecified)	-2.4%
O=C(c1ccc2c(c1)OCO2)c1cn(Cc2cccc(F)c2)c2ccc(F)cc2c1=O	62.0%
O=C(CSc1nnc(-c2ccncc2)o1)Nc1nccs1	9.2%
CCOC(=O)C1CCN(C(c2cccs2)c2sc3ncnn3c2O)CC1 (stereo unspecified)	1.5%
COc1ccc(NC(=O)c2oc3ccccc3c2NC(=O)c2cccc(Br)c2)c(OC)c1	3.8%
O=C(Nc1nc2c(cc3c4c(cccc42)CC3)s1)c1cccc(Br)c1	6.6%
C=C(C)CSc1nc2c(c(=O)[nH]c(=O)n2C)n1CCCCC	17.8%
COc1cc(C(=O)N2CCN=C2SCc2ccc([N+](=O)[O-])cc2)cc(OC)c1OC	-2.6%
O=C(Nc1nc(-c2ccccc2)c(C(=O)c2ccccc2)s1)c1ccccc1	14.0%
Cc1cccc2sc(NC(=O)CN3C(=O)c4ccccc4S3(=O)=O)nc12	2.3%
Cc1cc(=O)[nH]c(SCc2nc3ncccn3c2Br)n1	-3.3%
C=CCOC(=O)C1=C(C)Nc2[nH]c(=O)[nH]c(=O)c2C1c1ccc(Br)cc1 (stereo unspecified)	-6.7%
CCN1C(=O)c2cccc3c(NC(=S)NC(=O)c4ccc(C(C)(C)C)cc4)ccc1c23	83.2%
CCc1ccc(C2C(C(C)=O)=C(C)Nc3ncnn32)cc1 (stereo unspecified)	-9.6%
O=c1[nH]c(N/N=C/c2cccs2)nnc1-c1ccccc1	21.6µg/mL*
O=C(COc1ccccc1)Nc1nc2c(s1)COc1ccccc1-2	7.6%
CC(C)C(=O)Nc1sc2c(c1C(N)=O)CCN(C)C2	-1.2%
CCS(=O)(=O)c1cccc(C(=O)Nc2sc3c(c2C(N)=O)CCN(C(C)=O)C3)c1	-17.4%

(next part)
SMILES	Mtb growth
Cc1nc(SCC(=O)c2ccc(Cl)cc2)c(C#N)c(C)c1C	11.2%
CCC(C(=O)NCCc1cc2ccc(C)cc2[nH]c1=O)c1ccccc1 (stereo unspecified)	7.1%
O=C(Nc1nnc(-c2ccc(F)cc2)o1)c1ccc(Cl)s1	83.3%
Cc1nc2c(ccc3nc(NC(=O)c4ccccc4)sc32)s1	33.3%
CCN(CC)c1ccc(/C=N/NC(=O)CCc2n[nH]c(=O)[nH]c2=O)cc1	0.3%
CCOC(=O)Cn1c(=NC(=O)CSC(C)=O)sc2ccccc21	0.2%
CC(=O)c1sc(NC(=O)C(C)C)nc1-c1ccccc1	2.9%
Cc1cccc2c1Oc1nc(-c3ccccc3)nc(SCC(=O)N3CCCc4ccccc43)c1C2	1.5%
N#Cc1c(N2C(=O)CC(Sc3ccccc3C(=O)O)C2=O)sc2c1CCCC2 (stereo unspecified)	-30.6%
CCn1cc(C(=O)Nc2ccc(F)c(F)c2)c2nn(-c3ccccc3)c(=O)c-2c1	-1.4%
Cn1c(=O)c2c(nc(SCc3c(F)cccc3Cl)n2Cc2ccc(Cl)cc2)n(C)c1=O	-3.1%
Clc1cccc(CSc2nnc3ccc(-c4cccs4)nn23)c1	17.6%
O=C(CSc1ccc2nnc(-c3cccs3)n2n1)NCc1ccc2c(c1)OCO2	30.4%
O=C(C(=O)N1CCN(c2cccc(Cl)c2)CC1)c1c[nH]c2ccccc12	u
CC(=O)c1ccc(NC(=O)CN2C(=O)/C(=C\c3cccs3)SC2=S)cc1	-12.4%
O=C(/C=C/c1ccccc1)Nc1ccc2c(c1)C(=O)NC2=O	-13.2%
Cc1ccc(NC(=O)c2oc3ccccc3c2NC(=O)c2ccc3ccccc3c2)cc1C	29.8%
Cc1c(C(=O)Nc2ccccc2)sc2ncn(CC(N)=O)c(=O)c12	-0.2%
COc1ccc(OCC(=O)N/N=C/c2ccc(O)c(OC)c2)cc1	-7.2%
CCS(=O)(=O)c1ccc(C(=O)Nc2nc3c(OC)ccc(C)c3s2)cc1	0.7%
Nc1[nH]c(=O)[nH]c(=O)c1N=Nc1ccc(SC(F)F)cc1	83.9%
CCN1C(=O)c2cccc3c(S(=O)(=O)Nc4ccc(C)cc4)ccc1c23	-1.1%
O=C(CSc1nnc(NC(=O)c2ccco2)s1)Nc1ccccc1F	-4.3%
Cc1nnc(SCC(=O)Nc2cccc(Cl)c2Cl)n(N)c1=O	-11.2%
Cc1ccc(N2C(=O)C3N=NN(CC(=O)Nc4ccc(F)c(Cl)c4)C3C2=O)cc1 (stereo unspecified)	-20.7%

Further structures follow:
SMILES	Mtb growth
COc1ccc(C(=O)Nc2c(N)nc(SCC(=O)N3CCCC3)[nH]c2=O)cc1	-2.6%
COc1cc([N+](=O)[O-])ccc1Nc1ncnc(N)c1[N+](=O)[O-]	-11.6%
CCOc1ccc(/C(O)=C2\C(=O)C(=O)N(CCCn3ccnc3)C2c2ccccn2)cc1 (stereo unspecified)	-4.7%
CCOC(=O)c1nn(-c2ccc(Cl)cc2)c(=O)c2c(NC(=O)c3cc(Cl)ccc3OC)scc12	-7.0%
Cc1nc(C#N)c(N/N=C/c2cccc(Cl)c2)o1	20.9%
COc1cccc(/C=N/NC(=O)CCn2cnc3ccccc32)c1	-3.1%
Cc1cccc(NC(=O)c2c(C(=O)Nc3ccc(F)c(Cl)c3)sc3nc(=O)c(C)nn23)c1	-0.3%
COc1ccc2nc(-c3cccc(NC(=O)c4cccc(C)c4)c3)cn2n1	-12.4%
CCOC(=O)CC(=O)CSc1ncnc2c1nnn2Cc1ccc(F)cc1	-3.6%
CCOC(=O)c1nn(-c2ccc(C(F)(F)F)cc2)c(=O)c2c(NC(=O)c3ccc(Cl)cc3)scc12	5.7%
COc1cc(OC)cc(-c2nnc(NC(=O)CCS(=O)(=O)c3ccc(C)cc3)o2)c1	-3.9%
Cc1cccc(C(=O)Nc2sc3c(c2C(N)=O)CC(C)CC3)c1 (stereo unspecified)	33.6%
Cc1cc2cc(CCNC(=O)c3cc4ccccc4oc3=O)c(=O)[nH]c2cc1C	0.8%
Cc1cccc2sc(NNC(=O)C3COc4ccccc4O3)nc12 (stereo unspecified)	77.5%
COCCn1c(SCC(=O)Nc2ccc(OC)cc2OC)nnc1-c1c[nH]c2ccccc12	9.9%
Cc1ccc(C(=O)Nc2cc(=O)n(C)c(=O)n2C)cc1C	-4.8%
COc1cccc2sc(Nc3nc4ccc5nc(SC)sc5c4s3)nc12	25.8%
O=[N+]([O-])c1ccccc1CSc1nnc2sc3ccccc3n12	0.8%
COC(=O)c1ccccc1NC(=O)CSc1nnc(-c2cccc(C)c2)n1-n1cccc1	-0.6%
CCCCCCCn1c(SCC(=O)OCC)nc2c1c(=O)[nH]c(=O)n2C	50.1%
Cc1ccc(C(=O)NCC(c2cccs2)N2CCc3ccccc3C2)cc1[N+](=O)[O-] (stereo unspecified)	11.9%
Cc1cnc(=O)[nH]c1SCC(=O)NCc1ccco1	2.8%
CCc1ccc(N2C(=O)C3N=NN(CC(=O)Nc4ccccc4F)C3C2=O)cc1 (stereo unspecified)	0.5%
CC(C)N1CCc2c(sc(NC(=O)c3cccc(Oc4ccccc4)c3)c2C#N)C1	0.4%
Cc1ccc2cc(CCNC(=O)C3CCCCC3)c(=O)[nH]c2c1	-6.8%

Next part.
SMILES	Mtb growth
COc1ccccc1NC(=O)CSc1ccc2nnc(-c3cccc(F)c3)n2n1	10.6%
Cn1c(=O)[nH]c(=O)c2c1nc(N1CCN(CCO)CC1)n2CC(=O)c1ccccc1	-1.9%
COc1ccccc1NC(=O)c1oc2ccccc2c1NC(=O)CC1CCCCC1	-4.8%
COc1cc(/C=C\C(=O)NCCc2cc3ccc(C)cc3[nH]c2=O)cc(OC)c1OC	0.1%
N#C/C(C(=O)NCCc1ccccc1)=C1/N=C(NC(=O)c2cccs2)c2ccccc21	-16.6%
Cc1nc2sc(C(c3cccs3)N3CCN(CCO)CC3)c(O)n2n1 (stereo unspecified)	-7.2%
N#CC1=C(SCC(=O)Nc2cccc(F)c2)NC2=C(C(=O)CCC2)C1c1ccco1 (stereo unspecified)	8.6%
c1ccc(Nc2nc(NCCN3CCOCC3)nc3nccnc23)cc1	2.2%
CCN(CC(O)Cn1c2ccccc2c2ccccc21)S(=O)(=O)c1ccc(F)cc1 (stereo unspecified)	2.1%
COc1ccc(NC(=O)Cn2cnc3sc(C(N)=O)c(C)c3c2=O)cc1	-4.1%
Cn1cnnc1SCCn1c(N2CCCCC2)nc2c1c(=O)[nH]c(=O)n2C	7.2%
COc1ccc2cc(CCNC(=O)c3ccc(S(=O)(=O)N4CCCC4)cc3)c(=O)[nH]c2c1	-8.8%
O=c1c(CN2CCOCC2)c(-c2ccccc2)[nH]c2ccc(Cl)cc12	3.0%
O=C(Cn1cnc2c(cnn2-c2ccc(F)cc2)c1=O)Nc1cccc(F)c1	2.0%
CC1CCc2c(sc3ncnc(SCC(=O)N4CCCCCC4)c23)C1 (stereo unspecified)	1.4%
Cc1nnc(NC(=O)c2ccc(OC(C)C)cc2)s1	4.0%
C=C(C)Cn1c(N2CCN(Cc3cccc4ccccc34)CC2)nc2c1c(=O)[nH]c(=O)n2C	-9.5%
Cc1nnc(NCc2ccc3c(c2)OCO3)[nH]c1=O	-11.1%
CCC(C(=O)Nc1c(C(=O)Nc2ccc(OC)c(OC)c2)oc2ccccc12)c1ccccc1 (stereo unspecified)	40.6%
O=C(NCCn1nc(-c2ccc(F)cc2)ccc1=O)c1ccco1	-7.6%
Cc1nnc(SCCn2c(N3CCN(c4ccccc4)CC3)nc3c2c(=O)n(C)c(=O)n3C)s1	-3.9%
Cn1c(=O)[nH]c(=O)c2c1nc(N1CCNCC1)n2CCOc1ccccc1	-3.5%
O=C(COc1ccc(Cl)cc1Cl)Nc1nc2ccc(S(=O)(=O)N3CCCC3)cc2s1	4.7%
COc1ccc2cc(CCNC(=O)c3cccc(C(F)(F)F)c3)c(=O)[nH]c2c1	48.6%
CC1CCc2c(sc(Nc3nc4ccc(F)cc4s3)c2C(N)=O)C1 (stereo unspecified)	35.8µg/mL*

In a second layout: results already given
SMILES | Mtb growth
COc1ccccc1NC(=O)CSc1ccc2nnc(-c3cccc(F)c3)n2n1 | 10.6%
Cn1c(=O)[nH]c(=O)c2c1nc(N1CCN(CCO)CC1)n2CC(=O)c1ccccc1 | -1.9%
COc1ccccc1NC(=O)c1oc2ccccc2c1NC(=O)CC1CCCCC1 | -4.8%
COc1cc(/C=C\C(=O)NCCc2cc3ccc(C)cc3[nH]c2=O)cc(OC)c1OC | 0.1%
N#C/C(C(=O)NCCc1ccccc1)=C1/N=C(NC(=O)c2cccs2)c2ccccc21 | -16.6%
Cc1nc2sc(C(c3cccs3)N3CCN(CCO)CC3)c(O)n2n1 (stereo unspecified) | -7.2%
N#CC1=C(SCC(=O)Nc2cccc(F)c2)NC2=C(C(=O)CCC2)C1c1ccco1 (stereo unspecified) | 8.6%
c1ccc(Nc2nc(NCCN3CCOCC3)nc3nccnc23)cc1 | 2.2%
CCN(CC(O)Cn1c2ccccc2c2ccccc21)S(=O)(=O)c1ccc(F)cc1 (stereo unspecified) | 2.1%
COc1ccc(NC(=O)Cn2cnc3sc(C(N)=O)c(C)c3c2=O)cc1 | -4.1%
Cn1cnnc1SCCn1c(N2CCCCC2)nc2c1c(=O)[nH]c(=O)n2C | 7.2%
COc1ccc2cc(CCNC(=O)c3ccc(S(=O)(=O)N4CCCC4)cc3)c(=O)[nH]c2c1 | -8.8%
O=c1c(CN2CCOCC2)c(-c2ccccc2)[nH]c2ccc(Cl)cc12 | 3.0%
O=C(Cn1cnc2c(cnn2-c2ccc(F)cc2)c1=O)Nc1cccc(F)c1 | 2.0%
CC1CCc2c(sc3ncnc(SCC(=O)N4CCCCCC4)c23)C1 (stereo unspecified) | 1.4%
Cc1nnc(NC(=O)c2ccc(OC(C)C)cc2)s1 | 4.0%
C=C(C)Cn1c(N2CCN(Cc3cccc4ccccc34)CC2)nc2c1c(=O)[nH]c(=O)n2C | -9.5%

(next part)
SMILES	Mtb growth
CCN1CCc2c(sc(NC(=O)c3ccccc3S(C)(=O)=O)c2C(N)=O)C1	-11.2%
CCCC(=O)Nc1scc2c(C(=O)OCC)nn(-c3ccc(Cl)cc3)c(=O)c12	12.5%
CCOc1ccc(C2C(C(=O)Nc3ccc(Cl)cc3)=C(C)Nc3nnnn32)cc1OC (stereo unspecified)	12.2%
Nc1nc(SCC(=O)N2CCN(c3ccccc3)CC2)[nH]c(=O)c1NC(=O)c1ccco1	-13.0%
COc1ccc(C(=O)C(C)OC(=O)c2cc(=O)[nH]c3ccccc23)cc1 (stereo unspecified)	-6.2%
COCCN(CCOC)S(=O)(=O)c1ccc(C(=O)Nc2nnc(-c3ccc(C)cc3C)o2)cc1	-10.1%
Nc1ncnc(NCCC(c2ccccc2)c2ccccc2)c1[N+](=O)[O-]	-4.0%
Cc1cccc(NC(=O)Nc2ccc(N3CCOCC3)cc2)c1	-8.5%
O=C1c2cccc3cccc(c23)C(=O)N1CCCCCc1n[nH]c(=S)o1	-8.0%
COc1ccc(CCNc2nc(C(F)(F)F)nc3c(C)cc(C)cc23)cc1OC	10.1%
COc1ccc(-c2nnc3c4cc(F)ccc4n(Cc4cccc(F)c4)cc2-3)cc1	13.0%
O=C(/C=C/c1ccccc1)Nc1c(C(=O)Nc2ccc(F)c(Cl)c2)oc2ccccc12	2.5%
Cc1nn(-c2ccccc2)c2sc(C(=O)N3CCCCC3)cc12	-15.6%
CCS(=O)(=O)c1cccc(C(=O)Nc2cccc(-c3nc4ccccc4o3)c2)c1	4.6%
CCOC(=O)c1c(NC(=O)c2ccc([N+](=O)[O-])s2)sc2c1CCCC2	4.4%

These rows are one share of the data, so the mix of outcomes need not match the whole.
